Compound activity: PubChem, National Center for Advancing Translational Sciences (NCATS)
Menin-MLL FL inh: menin-MLL binding inhibition, fluorescein peptide. Fluorescence polarization, fluorescein-MLL peptide displacement from menin. FP activity change, % at 61.4 µM. 290,000 tested, under 10 active; inconclusive = falling polarisation curve, or a change in total fluorescence; inactive = total fluorescence flat and polarisation flat or rising; no compound was filed as active; the % refers to the polarisation; negative = inhibition;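 further: % of control where 0% means no effect; inhibitors lower the polarisation; unlabelled MLL peptide was the positive control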
TRPV1 potentiator: human TRPV1 potentiation; Q8NER1; TRPV1-expressing cells, Fluo-8 calcium influx, capsaicin EC20 potentiation; host cell line not named in the record; control for the full effect not named in the record; potentiation, % at 8.33 µM; hit rate 0.02% among 320,000; active means potentiation above 80%; inconclusive means 30% to 80%; inactive means below 30%; further: 0% is about no effect
Target sequence (Q8NER1 whole entry, looked up): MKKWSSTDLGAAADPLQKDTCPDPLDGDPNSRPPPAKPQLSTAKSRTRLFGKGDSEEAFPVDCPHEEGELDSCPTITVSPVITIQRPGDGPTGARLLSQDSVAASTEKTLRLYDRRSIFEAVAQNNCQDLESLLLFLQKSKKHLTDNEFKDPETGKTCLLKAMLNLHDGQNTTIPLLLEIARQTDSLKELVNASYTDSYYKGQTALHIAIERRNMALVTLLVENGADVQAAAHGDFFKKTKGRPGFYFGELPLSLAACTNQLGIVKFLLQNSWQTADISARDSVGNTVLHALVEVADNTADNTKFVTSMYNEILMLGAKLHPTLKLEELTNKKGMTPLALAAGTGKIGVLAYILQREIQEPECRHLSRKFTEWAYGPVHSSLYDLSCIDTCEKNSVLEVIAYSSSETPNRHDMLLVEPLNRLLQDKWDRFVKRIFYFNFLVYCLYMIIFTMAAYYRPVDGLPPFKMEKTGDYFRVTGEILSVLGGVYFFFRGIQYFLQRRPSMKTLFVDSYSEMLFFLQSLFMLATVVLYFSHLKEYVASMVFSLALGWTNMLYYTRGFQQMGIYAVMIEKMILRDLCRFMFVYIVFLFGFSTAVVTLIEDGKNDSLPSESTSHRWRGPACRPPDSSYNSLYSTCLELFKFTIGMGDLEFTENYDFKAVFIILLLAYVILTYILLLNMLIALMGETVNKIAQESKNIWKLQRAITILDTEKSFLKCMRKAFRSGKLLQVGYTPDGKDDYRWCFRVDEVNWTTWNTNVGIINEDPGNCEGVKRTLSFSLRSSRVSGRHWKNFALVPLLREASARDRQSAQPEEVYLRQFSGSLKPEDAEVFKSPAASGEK
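Cells expressing TRPV1 were dye-loaded with Fluo-8 and read kinetically: 10 s baseline, 3 min after compound (agonist portion), then 2 min after EC20 capsaicin (allosteric enhancer portion). Calcium-bound dye fluorescence at 480/520 nm.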
ClpP mod: qHTS Assay for Activators of ClpP; ATP-dependent Clp protease proteolytic subunit (Bacillus subtilis (strain 168)), P80244; purified B. subtilis ClpP, FRET peptide cleavage, 20 min; Potency, µM (highest dose often 57.5 µM), inactives show at the top dose activity change, negative = active; hit rate 1.9% among 340,000; active = well fitted falling curve with a large enough effect; inconclusive = small, poorly fitted or top-dose-only effect; inactive = no such curve, though single readings can be large or run the other way; further: potency means the concentration at half of the fitted maximal effect; the source files actives as falling curves though it sought activators and does not explain the sign; nearly all actives have a fitted effect of over 65% in size; many hits overshoot -100%
Target sequence (P80244 whole entry, looked up): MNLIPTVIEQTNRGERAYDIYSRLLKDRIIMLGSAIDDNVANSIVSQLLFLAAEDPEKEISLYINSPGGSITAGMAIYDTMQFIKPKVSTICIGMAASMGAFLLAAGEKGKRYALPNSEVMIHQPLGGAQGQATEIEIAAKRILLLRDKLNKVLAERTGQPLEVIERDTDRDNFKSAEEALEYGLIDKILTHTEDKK
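Buffer: 100 mM Tris/HCl pH8, 100 mM KCl, 0.05% low protease BSA, 2.5% glycerol, 0.01% Tween-20. ClpP 10 microg/mL final; 20 min RT; delta FRET normalized to ADEP and DMSO controls.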
gsp ag: gsp mutant agonism | Potency, µM (top dose mostly 76.9 µM), for the others: top-dose activation (cAMP increase), actives largely listed as activators | gsp mutant cells, cAMP HTRF, 30 min; control for the full effect not named in the record | hit rate 0.13% among 340,000 | AID 624287; active = well fitted activation curve with a large enough effect; inconclusive = small, poorly fitted or top-dose-only effect, or another doubt; inactive = no such curve, though single readings can be large or run the other way; cell line not stated here;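 further: phosphodiesterase inhibitor Ro 20-1724 added with compounds to block cAMP breakdown; potency means the concentration at half of the fitted maximal effect; nearly all actives have a fitted effect of over 60% in size; about a fifth of the inactives were tested at one dose only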
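Cells in DMEM/10% FBS with G418 were pretreated with compounds in DMSO plus […] (300 uM stock) for 30 min at 37C. cAMP was measured by HTRF (cAMP-d2 plus anti-cAMP antibody-K) after 30 min at room temperature.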
D2 potentiator: potentiates the human D2 dopamine receptor allosterically; P14416; DiscoveRx D2 beta-arrestin cells, luminescence, 90 min; 100% = 57 uM dopamine signal; potentiation, % (no concentration beside the values); hit rate 0.23% among 360,000; AID 624464; active = potentiation of 50% or more; inconclusive = 30% to 50%; inactive = 30% or less;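 further: compound concentration not given in the record; tested on top of an EC20 dose of dopamine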
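PathHunter D2 cells, attached overnight at 37 deg C, received compound in DMSO plus dopamine at EC20 (50 nM final) for 90 min at 37 deg C. Beta-arrestin recruitment was read as luminescence after 1 h with detection reagent at ambient temperature.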
gsp antagonist: gsp mutant antagonism; gsp-mutant cells, cAMP HTRF, 30 min; control for the full effect not named in the record; Potency, µM (doses to about 76.9 µM), for the others: at the highest dose activity change, negative = inhibition, most hits filed as inhibitors; hit rate 0.4% among 340,000; AID 624288; active = falling curve of any shape with a large fitted effect; inconclusive = falling curve, mostly with a smaller effect; inactive = flat or rising curve; cell line not stated here;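 further: intracellular cAMP measured with PDE inhibitor Ro 20-1724 present during compound exposure; potency means the concentration at half of the fitted maximal effect; on the % scale 0 is the no-effect control and ±100 the full control effect; nearly all actives have a fitted effect of over 65% in size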
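HTRF cAMP measurement after 30 min RT detection following 30 min, 37C compound treatment alongside […] (added as 300 uM solution) in G418-selected cells seeded at 2000/well and grown 16–24 h.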
Sfp inh: inhibitors of Bacillus subtilis Sfp phosphopantetheinyl transferase; AID 1490; hit rate 3.5% among 310,000; Potency, µM, for inactives: max response, negative = inhibition, hits mostly inhibitors; Biochemical Sfp PPTase activity, qHTS; active means well fitted inhibition curve with a large enough effect; inconclusive means small, poorly fitted or top-dose-only effect, or another doubt; inactive means no such curve, though single readings can be large or run the other way;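 further: the enzyme is Sfp with the accession as filed and its product quenches rhodamine fluorescence; potency means the concentration at half of the fitted maximal effect; 0% = enzyme reaction without inhibitor and -100% = no enzyme wells; top concentration of the series not given in the record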
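Step 1, compound plus 15 nM Sfp-PPTase, 15 min, room temperature. Step 2, add rhodamine-CoA (5 uM) and BHQ-2-YbbR (12.5 uM). Step 3, read 525/598 nm fluorescence at 0 and 30 min.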
Starred values were filed as active, the others as inactive; & = joins results of further samples; [ ] = dose if it differs, or a comment.

Screening COc1ccc(COC(=O)c2ccc(Br)c(S(=O)(=O)N3CCOCC3)c2)cc1F returned TRPV1 potentiator 2.7, ClpP mod 1.7%, gsp ag -16.7%, D2 potentiator -13.6 and gsp antagonist -9.1%.
`CC1(C)CC(=O)C(N=Nc2ccc(Br)cc2)=C(O)C1` gave Menin-MLL FL inh 1.6, TRPV1 potentiator -4.5, gsp ag 5.0%[15.4 µM], D2 potentiator -6.9, gsp antagonist 9.6% and Sfp inh 24.3%.
NC(=O)COC(=O)[C@@H]1CC(O)CN1S(=O)(=O)c1ccc2c(c1)OCCO2 (stereo not given in full) was read as Menin-MLL FL inh -0.6, TRPV1 potentiator -10.0, gsp ag 1.7%[15.4 µM], D2 potentiator -4.7, gsp antagonist 7.0% and Sfp inh 12.3%.
Screening Cc1ccc2nc(-c3ccc(NC(=O)CSc4nccc(=O)[nH]4)cc3)sc2c1 returned Menin-MLL FL inh 0.5, TRPV1 potentiator 1.5, gsp ag 8.0%[15.4 µM], D2 potentiator -11.0, gsp antagonist inconclusive and Sfp inh 14.7%.
C=CCc1c(C)nc(SC)nc1Nc1ccc(C(C)=O)cc1 was read as Menin-MLL FL inh 5.0, TRPV1 potentiator -11.1, ClpP mod -15.7%, gsp ag 12.4%, D2 potentiator -2.9, gsp antagonist -10.1% and Sfp inh -7.6%.
C=CCNS(=O)(=O)c1ccc2c(c1)n(C)c(=O)n2C was read as Menin-MLL FL inh -2.1, TRPV1 potentiator -5.5, gsp ag 2.4%[15.4 µM], D2 potentiator -4.3, gsp antagonist -7.7% and Sfp inh 13.1%.
`COc1cc2c(cc1OC)C(c1ccc(Br)cc1)CC(=O)N2` (stereo not given) gave Menin-MLL FL inh 0.9, TRPV1 potentiator -10.3, ClpP mod 1.2%, gsp ag -38.7%[inhibitor], D2 potentiator -0.5, gsp antagonist -6.0% and Sfp inh 6.4%.
Cc1oc(-c2ccc(Cl)cc2)nc1CN1CCCC(C(=O)NCCCN2CCCC2=O)C1 (stereo not given) was read as Menin-MLL FL inh 2.5, TRPV1 potentiator 10.0, ClpP mod -0.7%, gsp ag inconclusive, D2 potentiator -2.3, gsp antagonist -3.0% and Sfp inh 9.6%.
For O=C(c1ccc([N+](=O)[O-])cc1)N1CCCC1 the results were Menin-MLL FL inh 0.5, TRPV1 potentiator -2.7, ClpP mod 0.5%, gsp ag 8.3%, D2 potentiator -5.8, gsp antagonist 9.2% and Sfp inh 21.0%.
Screening Cc1ccc2nc3c(cc(C(=O)NCCc4ccccc4)c(=N)n3CCCN3CCOCC3)c(=O)n2c1 returned Menin-MLL FL inh 5.8, TRPV1 potentiator 7.8, gsp ag -5.8%[15.4 µM], D2 potentiator -5.4, gsp antagonist 13.6% and Sfp inh 21.2%.
For CCn1ccc(-c2ccccc2)c(C#N)c1=O the results were Menin-MLL FL inh -5.9, TRPV1 potentiator 2.8, ClpP mod 3.6%, gsp ag -17.0%, D2 potentiator -4.3, gsp antagonist 3.3% and Sfp inh 13.1%.
`Cc1cc2nc3c(=O)[nH]c(=O)[nH]c3nc2c([N+](=O)[O-])c1N` gave Menin-MLL FL inh inconclusive, TRPV1 potentiator 2.2, gsp ag 8.1%[15.4 µM], D2 potentiator 4.5, gsp antagonist -5.4% and Sfp inh inconclusive.
For COC(=O)c1ccccc1NC(=O)CC#N the results were Menin-MLL FL inh 2.9, TRPV1 potentiator 21.4, ClpP mod -24.4%, gsp ag -40.9%[inhibitor], D2 potentiator -7.8, gsp antagonist 8.7% and Sfp inh -0.9%.
For c1ccc(CNc2nnnn2-c2ccccc2)cc1 the results were Menin-MLL FL inh -0.9, TRPV1 potentiator 16.8, ClpP mod -1.2%, gsp ag inconclusive, D2 potentiator -15.9, gsp antagonist 0.2% and Sfp inh 5.9%.
`O=C(N/N=C/C(Cl)=C/c1ccccc1)c1cnccn1` gave Menin-MLL FL inh 1.3, TRPV1 potentiator -0.3, ClpP mod 1.3%, gsp ag -22.3%, D2 potentiator -4.2, gsp antagonist 18.3% and Sfp inh 13.9%.
For COc1ccc(-c2c([C@H]3[C@@H]4C=CCC[C@@]4(C)C(=O)N3Cc3ccccc3)ccc3ccccc23)cc1OC the results were Menin-MLL FL inh 2.8, TRPV1 potentiator 23.1, ClpP mod -23.6%, D2 potentiator -3.0, gsp antagonist 18.4% and Sfp inh -4.8%.
For CC1(C)CC(Cc2ccc(Cl)nc2)N(C(=O)OC(C)(C)C)C1 (stereo not given) the results were ClpP mod 0.3%, gsp ag -64.3%[inhibitor] and D2 potentiator 5.0.
`CC1(C)CC(=O)C=C(c2ccc(-c3ccc(OC(F)(F)F)cc3)cc2)C1=O` gave ClpP mod 0.7%, gsp ag -33.9%[inhibitor] and D2 potentiator -3.2.
COc1ccc(C2=CC3=C(Br)C(=O)C(C)(OC(=O)C4CCCC4)C(=O)C3=CO2)cc1 (stereo not given) was read as Menin-MLL FL inh inconclusive, TRPV1 potentiator 8.1, ClpP mod 1.5%, gsp ag -58.8%[inhibitor], D2 potentiator -4.4, gsp antagonist -9.5% and Sfp inh -4.5%&-21.7%.
Screening Cn1c(SCC(=O)NCc2ccco2)nnc1C1CCCC1 returned TRPV1 potentiator -10.7, ClpP mod 0.2%, gsp ag -67.5%[inhibitor], D2 potentiator -5.1, gsp antagonist 10.5% and Sfp inh 12.5%.

For reference, some entries already given:
Screening COc1ccc(COC(=O)c2ccc(Br)c(S(=O)(=O)N3CCOCC3)c2)cc1F returned TRPV1 potentiator 2.7, ClpP mod 1.7%, gsp ag -16.7%, D2 potentiator -13.6 and gsp antagonist -9.1%.
`CC1(C)CC(=O)C(N=Nc2ccc(Br)cc2)=C(O)C1` gave Menin-MLL FL inh 1.6, TRPV1 potentiator -4.5, gsp ag 5.0%[15.4 µM], D2 potentiator -6.9, gsp antagonist 9.6% and Sfp inh 24.3%.

Going on with the list.
`CCN1C=C(Cc2ccc(OC)cc2)C2=C(C1)C(c1ccc(OC)cc1)C(C#N)=C(N)O2` (stereo not given) gave Menin-MLL FL inh inconclusive, TRPV1 potentiator -7.7, ClpP mod -3.4%, gsp ag 0.0%, D2 potentiator -9.8, gsp antagonist -22.9% and Sfp inh -21.8%.
For CCN(CC(=O)Nc1ccc(NC(C)=O)cc1)C(=O)Cc1coc2cc(C)c(C)cc12 the results were TRPV1 potentiator 29.1, gsp ag -7.5%[15.4 µM], D2 potentiator -2.9 and gsp antagonist -5.2%.
`O=C(Nc1ccc(F)cc1)c1cnc(-c2ccccc2)nc1-c1ccccc1` gave Menin-MLL FL inh 0.0, TRPV1 potentiator -4.3, ClpP mod 3.7%, gsp ag 6.5%, D2 potentiator -8.5, gsp antagonist 10.8% and Sfp inh 9.4%.
`CC(C)(C)c1ccc(OCCC(=O)NCC(c2cccs2)N2CCOCC2)cc1` (stereo not given) gave TRPV1 potentiator -12.2, ClpP mod -20.1%, gsp ag -5.4%, D2 potentiator -10.6 and gsp antagonist -8.2%.
For COc1ccc(C2NC(=O)c3sc4nc(C)c(C(C)=O)c(-c5ccc(Cl)cc5)c4c3N2)cc1 (stereo not given) the results were Menin-MLL FL inh 6.8, TRPV1 potentiator 8.4, ClpP mod 20.2%, gsp ag inconclusive, D2 potentiator -9.3, gsp antagonist 12.7% and Sfp inh -5.8%.
CCCCOc1ccc(NC2=NC3(CCCCC3)N=C(N)N2)cc1 was read as Menin-MLL FL inh -0.8, TRPV1 potentiator 6.6, ClpP mod 1.7%, gsp ag -2.3%, D2 potentiator -2.0, gsp antagonist 8.1% and Sfp inh -29.1%.
COc1ccc(OC)c(/C=N/c2c(-c3ccc(O)c(OC)c3)nc3ccccn23)c1 was read as Menin-MLL FL inh -1.3, TRPV1 potentiator 25.6, ClpP mod -6.4%, gsp ag 0.4%, D2 potentiator -7.3, gsp antagonist 86.6%[activator] and Sfp inh -23.1%.
For CCNc1nc(NCC)n2c(SCC(=O)Nc3ccc(NC(C)=O)cc3)nnc2n1 the results were TRPV1 potentiator 4.4, ClpP mod 1.6%, gsp ag -10.7%[15.4 µM], D2 potentiator -1.8 and gsp antagonist 3.3%.
For CCOC(=O)N1CCN(S(=O)(=O)N2CCCC(C(=O)NCCc3ccc(OC)c(OC)c3)C2)CC1 (stereo not given) the results were Menin-MLL FL inh -2.7, TRPV1 potentiator -1.5, ClpP mod -1.8%, gsp ag -2.9%, D2 potentiator -21.1, gsp antagonist -8.9% and Sfp inh 20.0%.
Screening COc1cccc(C(=O)Nc2ccc(NC(=O)C3CC3)cn2)c1 returned Menin-MLL FL inh -2.2, TRPV1 potentiator 12.5, ClpP mod -4.9%, gsp ag -10.3%, D2 potentiator 29.7, gsp antagonist -7.2% and Sfp inh 12.7%.
For O=C1CCN(Cc2ccccc2)C=C1C(=O)c1ccccc1 the results were ClpP mod -0.2%, D2 potentiator 0.2 and gsp antagonist -11.8%.
Screening O=C(Cc1nc2ccccc2s1)c1ccc(O)cc1O returned Menin-MLL FL inh 4.2, TRPV1 potentiator 6.0 and Sfp inh 50.1µM*.
Screening Cc1ccc(OCC(=O)N2CCCCC2C)c([N+](=O)[O-])n1 (stereo not given) returned ClpP mod 0.3%, gsp ag -8.5%, D2 potentiator -2.8 and gsp antagonist 4.5%.
For CCOc1ccc2nc(NCCNC(=O)c3cc(OC)c(OC)c(OC)c3)c(C#N)cc2c1 the results were Menin-MLL FL inh -21.7, TRPV1 potentiator 8.0, ClpP mod -6.5%, gsp ag 2.4%, D2 potentiator -2.5, gsp antagonist 4.4% and Sfp inh -2.6%.
For Brc1ccc(CN2CCN(c3ccccc3)CC2)o1 the results were Menin-MLL FL inh 2.3, TRPV1 potentiator 5.3, ClpP mod -5.9%, gsp ag 6.5%[15.4 µM], D2 potentiator -12.8, gsp antagonist 11.0% and Sfp inh -24.7%.
Screening CCCCCc1cc(=O)oc2c(C(CCN3CCN(c4ccccc4)CC3)c3ccc4c(c3)OCO4)c(OC)cc(OC)c12 (stereo not given) returned Menin-MLL FL inh -1.4, TRPV1 potentiator 21.2, ClpP mod -23.3%, D2 potentiator 2.0, gsp antagonist 9.6% and Sfp inh -0.2%.
O=C(CN1C(=O)CCS(=O)(=O)c2ccccc21)Nc1ccccc1F was read as Menin-MLL FL inh -1.8, TRPV1 potentiator 0.3, ClpP mod 0.4%, gsp ag -5.8%, D2 potentiator -8.3, gsp antagonist 10.4% and Sfp inh 13.5%.
